Assay outcomes: PubChem, several laboratories
HNF4A DNA FP = change in binding of human HNF4 alpha to DNA; P41235; HNF4a-FITC DNA binding, fluorescence polarization, 1 h; activity change, % at 10 µM; 0.3% of 360,000 active; in the data active means activity change above about 30%, passing the limit was not always enough;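 further: controls were the assay level and a saturating level of protein; the project sought stronger binding though the title names inhibitors; some compounds called inactive have numbers as strong as hits; positive values seem to mean higher polarization but the record does not say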
Target sequence (P41235 whole entry, looked up): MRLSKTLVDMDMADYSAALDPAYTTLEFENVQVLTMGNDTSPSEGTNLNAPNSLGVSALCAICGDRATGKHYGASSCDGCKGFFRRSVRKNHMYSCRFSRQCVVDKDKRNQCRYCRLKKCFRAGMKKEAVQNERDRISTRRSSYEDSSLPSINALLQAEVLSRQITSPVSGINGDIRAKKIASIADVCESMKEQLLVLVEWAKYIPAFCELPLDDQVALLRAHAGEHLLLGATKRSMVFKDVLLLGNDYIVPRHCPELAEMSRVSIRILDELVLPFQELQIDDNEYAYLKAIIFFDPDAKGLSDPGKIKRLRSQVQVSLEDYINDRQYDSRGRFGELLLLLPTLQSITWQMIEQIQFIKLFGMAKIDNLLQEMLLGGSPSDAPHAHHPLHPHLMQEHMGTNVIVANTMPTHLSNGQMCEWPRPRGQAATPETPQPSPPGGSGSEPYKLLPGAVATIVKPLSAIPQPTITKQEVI
ALR inh = inhibitors of human sulfhydryl oxidase ALR; P55789; purified ALR, DTT oxidation, H2O2 HRP-luminol luminescence; inhibition, % (concentration not given with the values); 3.8% of 290,000 active; AID 485317;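 active means mean and each replicate at 75% or more; inconclusive means only one of the two met; inactive means neither met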;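 further: stock transfer was 7.5 nL into about 7.5 µL; 0% = neutral wells and 100% = wells with inactivated enzyme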
Target sequence (P55789 whole entry, looked up): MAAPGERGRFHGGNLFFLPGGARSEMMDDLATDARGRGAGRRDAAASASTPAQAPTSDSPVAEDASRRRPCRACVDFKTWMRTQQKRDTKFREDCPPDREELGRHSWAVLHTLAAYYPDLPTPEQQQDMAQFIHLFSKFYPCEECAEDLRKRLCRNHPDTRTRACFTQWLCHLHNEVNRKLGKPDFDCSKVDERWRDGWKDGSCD
Vif TR-FRET = inhibitors of Vif binding to APOBEC3G peptide, primary screen, biochemical, TR-FRET, GST-Vif 1-94, biotin-A3G peptide, dose response retest (AID 1117319); TR-FRET GST-Vif / biotin-A3G peptide binding; higher % means a stronger effect; test concentration not given here; strong numbers were not always called active; one-dose inhibition, %; IC50 in µM for titrated hits; 0.57% of 260,000 active;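 active means above the screen mean plus three standard deviations and confirmed in dose response; inconclusive means results disagree or hit not tested in dose response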;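 further: Vif residues 1-94 fused to GST binding biotinylated APOBEC3G peptide 110-148; 0% = full assay without inhibitor and 100% = GST in place of GST-Vif; retest series ran down from 100 µM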
RanGTP-Impb inh = inhibitors of RanGTP-importin-beta interaction, primary screen, biochemical, FRET, CFP-Ran, YFP-importin-beta, homogeneous | 1.1% of 300,000 active | inhibition, % (no concentration beside the values) | cell-free CFP-Ran/YFP-importin-beta FRET ratio | AID 2216;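 active means most replicates above 15%; inconclusive means exactly half above 15%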;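 further: 0% = DMSO wells and 100% = Ran loaded with GDP instead of GTP; wells of about 40 µL received 100 nL stock; the first replicate is given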
LANA-H2B inh = blocks KSHV LANA binding to histone H2A/H2B; inhibition, % (test concentration not listed); AID 2629; Q9QR71; cell-free LANA-H2A/H2B peptide, fluorescence polarization; 0.6% of 320,000 active; in the data active means inhibition mostly above about 10%, no sharp cut-off; inactive means mostly below about 6.7%;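 further: stock transfer was 7.5 nL into about 10 µL; 0% = median of vehicle wells and 100% = median of positive control wells; one replicate is shown; the record names a cut of 25% in any replicate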
Calb FLC = C. albicans growth modulation with fluconazole | AID 1979 | C. albicans CaCi-2 (fluconazole-resistant clinical isolate) + fluconazole, Alamar Blue growth, 48 h | 0.57% of 300,000 active | growth inhibition, % (concentration not given with the values);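 active means most replicates above 75%; inconclusive means exactly half above 75%; inactive means most below 75%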;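 further: all wells also contain fluconazole at 8 µg/ml as a sub-toxic cotreatment; 0% = median of DMSO wells and 100% = median of geldanamycin control wells; wells of about 8 µL received 7.5 nL stock; the first replicate is given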
Beta2AR agonist = human beta-2 adrenergic receptor agonism by FAP | response, % (test concentration not listed) | AID 504454 | 0.43% of 340,000 active | Am2.2-beta2AR cells, FAP receptor internalization, flow cytometry; reference of the scale not given here;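 active means response above a set limit, near 3 SD of response in nonfluorescent compounds, cut at about 42% in these data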;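 further: stock transfer was 100 nL into about 11 µL; a reference agonist was the positive control; negative values mostly stem from fluorescent compounds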
Target sequence (P07550 whole entry, looked up): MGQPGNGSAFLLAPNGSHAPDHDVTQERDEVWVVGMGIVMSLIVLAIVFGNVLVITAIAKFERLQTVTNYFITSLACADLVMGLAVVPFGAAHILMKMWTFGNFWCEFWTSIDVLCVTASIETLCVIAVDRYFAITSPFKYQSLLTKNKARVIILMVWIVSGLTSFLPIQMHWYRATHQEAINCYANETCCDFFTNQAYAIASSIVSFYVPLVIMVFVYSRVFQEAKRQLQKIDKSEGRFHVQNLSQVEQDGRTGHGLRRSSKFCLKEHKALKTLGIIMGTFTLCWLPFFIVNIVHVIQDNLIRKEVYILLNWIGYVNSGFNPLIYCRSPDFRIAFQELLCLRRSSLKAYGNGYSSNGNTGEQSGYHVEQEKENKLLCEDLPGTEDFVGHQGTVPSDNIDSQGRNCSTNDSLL
The depositor's hits bear a star; ? = inconclusive; . = not tested or not shown; & = joins results of further samples.

SMILES | HNF4A DNA FP | ALR inh | Vif TR-FRET | RanGTP-Impb inh | LANA-H2B inh | Calb FLC | Beta2AR agonist
Cc1cc(C)n2nc(SCC(=O)NC(=O)NCc3ccco3)nc2n1 | -2.8 | 4 | -7% | 0.7 | -0.1 | -2 | -22
Cc1ccc(NC(=O)CCNCc2ccco2)cc1S(=O)(=O)N(C)C | 0.5 | -4 | . | ? | 2.3 | -7 | -3
Cc1nn(C(=O)N2CCOCC2)c(C)c1C | -1.8 | -7 | -5% | 3.7 | 4.5 | -8 | 5
CCn1c(C)c(C(=O)O)c2cc(OC)c3ccccc3c21 | -0.9 | 9 | -4% | -7.9 | -2.4 | -13 | -2
CC(=O)OCC(=O)C1CCC2C3CC=C4CC(O)CCC4(C)C3CCC12C (configuration not stated) | 1.4 | -7 | . | . | 5.3 | . | 5
CN(C)S(=O)(=O)c1ccc2oc(SCC(=O)NCC(F)(F)F)nc2c1 | 2.1 | -11 | -1% | 3.2 | 1.3 | -17 | 1
CC(=O)NCCc1nc2ccccc2n1Cc1ccc(Cl)cc1 | 0.8 | 4 | -7% | 5.8 | -0.4 | -19 | -11
CCOC(=O)C1=C(O)/C(=C/c2cn(CC(=O)NCC3CCCO3)c3ccccc23)SC1=Nc1ccc(C)cc1 (configuration not stated) | -10 | 1 | 1% | . | -0.8 | . | 10
O=S(=O)(c1ccc(Cl)cc1)n1cnc2ccccc21 | -0.6 | -9 | . | 0.3 | -4.6 | 3 | 4
S=C1NC(c2ccccc2)=NCN1c1ccc(Cl)cc1 | -1.4 | -5 | 11% | -4.8 | -7.2 | -4 | -12
COc1cc2cc(C(c3nnnn3C(C)(C)C)N3CCc4ccccc43)c(=O)[nH]c2cc1OC (configuration not stated) | -0.2 | -14 | 9% | -5.3 | -0.8 | -3 | 7
CCC(C)Sc1nc2c(cnn2-c2ccc(C)cc2)c(=O)[nH]1 (configuration not stated) | 5.2 | -11 | 1% | 0.2 | 1.3 | -7 | 7
CC(C)CCn1cnc2c(c1=O)c1nc3ccccc3nc1n2Cc1ccc2c(c1)OCO2 | 0.4 | . | 7% | 2.8 | . | -5 | -17
CCNC(=S)N1CCC(c2nc3cc(C)c(C)cc3[nH]2)CC1 | 7.0 | 4 | 22% | -2.0 | 4.2 | 1 | -3
COc1cc(CNCCO)ccc1OCCc1ccccc1 | -2.0 | -4 | . | -0.3 | -1.8 | -4 | 5
O=S(=O)(c1ccc(Cl)cc1)N1CCN(c2ncnc3sccc23)CC1 | 10 | -6 | . | . | -6.1 | . | 0
CC(C)Sc1nnc(Nc2ccccc2)s1 | -1.0 | 2 | 3% | -3.3 | 1.6 | -29 | -2
Cc1c(NC(=O)CN2CCN(c3ccc(O)cc3)CC2)c(=O)n(-c2ccccc2)n1C | -0.5 | 99* | 10µM* | 4.0 | -1.2 | 48 | -4
CC(C)N1C(=O)C2C(C(=O)NC3CCCCC3)C3C=CC2(O3)C1C(=O)NC1CCCC1 (configuration not stated) | -1.9 | 0 | 0% | 3.2 | 4.3 | -3 | -6
O=C(NCc1ccccn1)c1ccc(Cl)c(S(=O)(=O)N2CCCCC2)c1 | 1.8 | -18 | 16% | -4.0 | 4.1 | -1 | -2
CCCC(c1nnnn1CC(=O)OCC)N(Cc1cc2c(C)cc(C)cc2[nH]c1=O)C1CCCC1 (configuration not stated) | -1.2 | -5 | 68% | ? | 6.0 | 3 | 2
CN(C)CCN(C(=O)c1ccc(C(=O)c2ccccc2)cc1)c1nc2cc3c(cc2s1)OCCO3 | 4.6 | 2 | . | 2.7 | 1.1 | 1 | -6
CCCn1c(SCC(=O)N2CCCc3ccccc32)nnc1-c1ccccn1 | 4.0 | -7 | 1% | ? | -2.5 | 0 | -1
O=C(Cn1ncc2c(=O)oc3ccccc3c21)N1CCCc2ccccc21 | 3.1 | -8 | 67% | 1.4 | 0.3 | -3 | 20
CCCCc1nc(N2CCOCC2)c(C#N)c2c1COC(C)(C)C2 | 0.6 | 100* | 4% | 4.0 | 2.8 | 17 | 2
O=C(OC1CCS(=O)(=O)c2sccc21)c1ccccc1 (configuration not stated) | 8.1 | . | 4% | -3.4 | -7.2 | -3 | 2
CCOC(=O)[C@@H]1[C@H]2COc3ccc(Br)cc3[C@H]2N2C(=O)N(c3cccc(Cl)c3)C(=O)[C@]12C | -0.1 | -6 | . | -3.3 | 3.7 | 22 | 7
Cc1ccc(C(=O)N2CCN=C2SCc2ccc([N+](=O)[O-])cc2)cc1C | 2.5 | 99* | 7% | 5.6 | -3.0 | -26 | 1
CCCC[C@@H]1C=C(C(=O)O)[C@H](c2ccc(Cl)c(Cl)c2)N1S(=O)(=O)c1ccc(C)cc1 | -4.3 | . | 2% | . | 0.9 | . | 16
COc1ccc(C2C(C(=O)NCC3CCCO3)c3cc(OC)c(OC)cc3C(=O)N2C)cc1OC (configuration not stated) | -5.1 | -11 | -1% | -0.6 | 1.8 | 2 | 2
Cc1ccc(-c2n[nH]c3c2CCC3)cc1 | 1.9 | -10 | -3% | 5.3 | -2.7 | -6 | 6
CC(C)CNc1c(N)n(CC(C)C)c(=O)[nH]c1=O | -6.1 | . | ? | . | . | . | -2
COc1ccccc1-c1cc(C(F)(F)F)nc(S(=O)(=O)CCCC(=O)N2CCOCC2)n1 | -1.1 | . | 4%&17% | 1.6 | -1.1 | -3 | 47*
OC1CCCN(C(=S)Nc2ccc(SC(F)F)cc2)C1 (configuration not stated) | 0.8 | -12 | 22% | 0.2 | 0.0 | -9 | -3
Cn1c(=O)n(CCOc2ccc(Cl)cc2Cl)c2ccccc21 | -2.2 | 4 | -1% | -0.9 | 1.4 | 0 | -12
C/C(=N\NC(=O)c1ccc(C)cc1)C1C(=O)c2ccccc2C1=O | -5.5 | . | -2% | -1.9 | -9.1 | 10 | 4
COc1cccc(Cn2cccc(NC(=O)NCc3ccccc3)c2=O)c1 | -3.1 | -48 | -2% | ? | 1.1 | 4 | 41
Cc1cc(OCC(=O)N2CCOCC2)c(C(C)C)cc1Cl | 0.3 | -7 | 1% | -1.1 | 2.3 | 9 | 0
COc1ccc(N/C=C\C(=O)c2ccc(Br)cc2)cc1OC | 123 | -20 | -4% | 0.5 | 0.1 | -15 | -2
CC(NC(=O)COC(=O)CCC(=O)c1ccc(Cl)cc1)c1ccccc1 (configuration not stated) | 5.7 | -3 | -3% | . | -4.6 | . | -2
CC(=O)Nc1ccc(C(=O)CSc2ncn(-c3ccccc3)n2)cc1 | 1.1 | -1 | -6% | 4.6 | 3.8 | -5 | -11
CCCOC1OC(=O)c2c1ccc(OC)c2OC (configuration not stated) | 2.6 | -2 | 8% | 2.5 | 3.2 | 1 | -1
CC(C)C(=O)N=c1sc2cccc(F)c2n1C | 1.5 | -19 | ? | -1.0 | -0.4 | -7 | -10
COc1cc(C(=O)Nc2ccc3c(c2)ncn3C(C)(C)C)cc(OC)c1OC | 1.8 | 41 | . | 2.8 | -0.2 | 31 | 1
COc1cc2ccccc2cc1C(=O)N1CCN(C)CC1 | 3.8 | -24 | 4% | -1.7 | -5.3 | 2 | 0
CCCS(=O)(=O)c1c(S(=O)(=O)CCC)c2cnccn2c1C(=O)c1ccc(Cl)cc1 | -1.5 | -10 | -3%&17% | 7.2 | 0.9 | 14 | -7
O=C1NC(=Nc2cccc([N+](=O)[O-])c2)SC1(CO)CO | -4.1 | -27 | -8% | -2.7 | -5.3 | -2 | 2
Cc1noc(C)c1N=Nc1ccccc1C(=O)O | 1.2 | -10 | -5% | 1.8 | -7.1 | -1 | 2
Cc1cc(C)c(NC(=O)C2CCCN2CCOC(=O)c2cccc([N+](=O)[O-])c2)c(C)c1 (configuration not stated) | 5.2 | -11 | 5% | 2.6 | 3.3 | 23 | 3
COC(=O)c1cc(NS(=O)(=O)c2ccc(N3CCC(C)CC3)c([N+](=O)[O-])c2)cc(C(=O)OC)c1 | -1.9 | -7 | . | 1.4 | 2.5 | 17 | -4
COc1ccccc1C(=O)Nc1ccc(CN2CCCCC2)cc1 | 5.4 | -10 | -4% | 1.1 | -1.1 | 21 | 8
CC(=O)Oc1c(I)cc(I)cc1C(=O)Nc1ccc(Cl)cc1 | -2.6 | 25 | . | 2.0 | -5.1 | 8 | 26
CC(C)(C)OC(=O)N1O[C@H]2C[C@@H]1[C@@H]1[C@@H]2N=NN1C12CC3CC(CC(C3)C1)C2 | 1.9 | . | 4% | . | . | . | -4
COc1ccccc1C(=O)N(NC(=O)Oc1ccccc1)C(C)(C)C | -2.0 | -3 | -1% | -1.9 | 2.8 | -10 | -3
COc1ccc(NC(=S)N2CCC(N(C)CC3CCCO3)CC2)cc1 (configuration not stated) | 4.5 | 1 | . | 1.6 | 1.4 | -4 | 9
COc1ccccc1C(C)NCC(=O)Nc1c(F)cccc1F (configuration not stated) | -0.3 | -2 | -1% | -3.3 | 1.6 | -23 | -1
O=C(N/C(=C/c1ccccc1)C(=O)N1CCCCCC1)c1ccccc1 | 1.0 | 6 | 8% | 3.1 | 6.6 | 31 | 0
Cc1ccc(F)c(NC(=O)c2ccc(Cn3cc(Cl)cn3)cc2)c1 | 1.7 | 14 | ? | 2.6 | -0.7 | -8 | 5
Cc1[nH]c2ccccc2c1-c1ccc(Cl)nn1 | 6.0 | 21 | -10% | -0.1 | 0.2 | -7 | 7
O=C(NCCc1cccc(C(F)(F)F)c1)C1CCC(=O)N(C2CC2)C1 (configuration not stated) | 5.7 | 0 | -2% | -0.7 | -0.5 | -5 | -5

(next part)
SMILES | HNF4A DNA FP | ALR inh | Vif TR-FRET | RanGTP-Impb inh | LANA-H2B inh | Calb FLC | Beta2AR agonist
COc1ccc(CC(=O)Nc2nnc(C(C)(C)C)s2)cc1OC | 0.6 | -24 | -2% | 0.8 | -5.7 | -26 | -6
CS(=O)(=O)N(CC(=O)N1CCCCC1)c1sc2c(c1C#N)CCCC2 | 7.6 | -13 | -2% | 0.0 | -0.3 | 2 | -3
S=C(NCc1ccco1)N1CCN(c2nc(-c3ccccc3)cs2)CC1 | -1.2 | 7 | 1% | ? | 2.7 | -10 | 2
CCN(CC)CCN(Cc1cc2cc3c(cc2[nH]c1=O)OCO3)C(=S)NCCCOC | -1.1 | -7 | -2% | -16 | 0.1 | -2 | 5
COC(=O)[C@]1(Cc2ccccc2)N[C@H](CN(C)S(=O)(=O)c2ccc(OC(F)(F)F)cc2)[C@@H]2C(=O)N(C)C(=O)[C@@H]21 | 0.3 | . | 2% | . | 1.1 | . | -4
C=CCNC(=S)NNC(=O)Cn1c(-c2ccccc2)cc(=O)n2ncnc12 | 0.7 | 56 | 8% | 6.8 | -0.5 | -41 | -1
c1ccc(Sc2ncnc3c2oc2ccccc23)nc1 | 2.4 | 11 | 1% | . | -1.3 | 18 | -18
O=S(=O)(Nc1ncccn1)c1ccc(NC(=S)Nc2cccc(Cl)c2)cc1 | . | 12 | . | -1.9 | 0.8 | -3 | .
Cc1ccc(C(=O)/C=C/C(=O)c2ccc(C)cc2)cc1 | -1.3 | 67 | . | 3.1 | -3.1 | -12 | 29
CC(=O)Nc1ccc2[nH]c(C)c(CC=C(Cl)Cl)c(=O)c2c1 | 8.1 | -12 | -8% | -3.2 | 7.1 | 2 | 1
Cn1nccc1C(=O)Nc1sc2c(c1C#N)CCCC2 | -0.4 | . | . | -2.8 | 0.7 | 62 | -25
O=C(Nc1cccc(F)c1)c1c(O)c2ccccc2[nH]c1=O | -0.7 | . | -3% | 5.4 | -6.9 | 12 | -7
Cn1cnnc1Sc1ccc(/C=C/C(=O)c2ccc(O)cc2)cc1[N+](=O)[O-] | 1.6 | 49 | ? | -2.4 | -1.3 | 22 | 28
COc1ccc(C(=O)COC(=O)CCC(=O)c2cccs2)cc1 | -1.0 | -3 | 0% | 0.1 | -5.0 | 6 | 1
